mut p53 SMM: binds human mutant p53 on microarray. small molecule microarray binding, anti-GST fluorescence. AID 624136. calls only. 0.4% of 17,000 active;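 active = compounds whose four printed spots each glow above background more than chance allows, each with a p-value under 7%; compounds were printed on slides so no solution concentration is given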;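 note: about 2 pmol printed per array spot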
ID4 binder: binders of human ID4 protein; AID 624137; calls only; P47928; 1.2% of 31,000 active; small molecule microarray, Flag-ID4 binding, fluorescence F/B;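 active = spot signal over background at p below 0.07 in all four prints; compounds were printed on slides so no solution concentration is given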;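 note: a binder raises fluorescence above local background on the spot; about 2 pmol printed per array spot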
Target sequence (P47928 whole entry, looked up): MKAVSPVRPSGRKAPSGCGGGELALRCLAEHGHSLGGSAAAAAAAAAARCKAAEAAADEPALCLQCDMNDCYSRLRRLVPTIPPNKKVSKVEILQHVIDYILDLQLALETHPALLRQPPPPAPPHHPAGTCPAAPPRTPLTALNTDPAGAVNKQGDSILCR
Myc binder: binders of human c-Myc; small molecule microarray, His-c-Myc binding, anti-His fluorescence; calls only; 1.5% of 17,000 active; AID 624141;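 active = spot fluorescence over background with P-value below 7% in all four replicate spots, showing protein binding; compounds were printed on slides so no solution concentration is given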;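 note: score is binary with 100 for all four spots passing and 0 otherwise; about 2 pmol printed per array spot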
Target sequence (P01106 whole entry, looked up): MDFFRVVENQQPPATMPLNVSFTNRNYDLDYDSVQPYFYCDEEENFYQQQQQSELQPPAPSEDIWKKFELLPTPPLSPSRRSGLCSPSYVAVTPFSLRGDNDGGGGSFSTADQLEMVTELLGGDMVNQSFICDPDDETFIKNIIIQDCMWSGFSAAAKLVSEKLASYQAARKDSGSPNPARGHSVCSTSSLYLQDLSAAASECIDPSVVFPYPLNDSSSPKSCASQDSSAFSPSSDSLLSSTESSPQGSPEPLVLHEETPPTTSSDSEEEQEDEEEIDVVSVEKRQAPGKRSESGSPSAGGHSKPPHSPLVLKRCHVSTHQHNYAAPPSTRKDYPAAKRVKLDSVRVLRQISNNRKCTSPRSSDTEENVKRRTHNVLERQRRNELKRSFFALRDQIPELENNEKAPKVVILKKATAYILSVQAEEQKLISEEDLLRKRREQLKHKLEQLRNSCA
STAT3 binder: binds human STAT3 on microarray; Small molecule microarray, His-STAT3 binding, anti-His fluorescence; calls only; 0.2% of 17,000 active; AID 624138;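 active = compounds whose four printed spots each show fluorescence over background unusually high for their array block, chance value under 7%; compounds were printed on slides so no solution concentration is given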;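 note: about 2 pmol printed per array spot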
Calls only; i = inactive; nt = no result given; + = active, no number. A portion of the library; rates above refer to the full screens.

SMILES | mut p53 SMM | ID4 binder | Myc binder | STAT3 binder
COc1ccc(CN(C)C[C@@H]2Oc3ccc(NC(=O)Nc4ccc(C(F)(F)F)cc4)cc3C(=O)N([C@H](C)CO)C[C@H]2C)cc1 | i | i | i | i
C[C@@H]1CCCCO[C@@H](CN(C)C(=O)CCC(F)(F)F)[C@H](C)CN([C@H](C)CO)C(=O)c2cc(N(C)C)ccc2O1 | i | i | i | i
Cc1cccc(NC(=O)c2ccc(OC(C)C(=O)Nc3ccc(Br)cc3)cc2)c1C (stereo unspecified) | i | i | i | i
C[C@@H]1CN([C@H](C)CO)C(=O)c2cccc(NC(=O)Nc3cccc4ccccc34)c2O[C@H]1CN(C)C(=O)Nc1ccc(F)cc1 | i | i | i | i
CC1OC(OCC2OC(O[C@H]3CC[C@@]4(C)C(CC[C@@]5(C)C6=C(CCC45)C4CC(C)(C)CC[C@]4(C(=O)OC4OC(CO)C(O)C(O)C4O)CC6)C3(C)C)C(O)C(O)C2O)C(O)C(O)C1O (stereo partly specified) | i | i | i | i
Cc1ccc(-c2nn(CC(=O)NCCN3CCOCC3)c(=O)c3ccccc23)cc1 | i | i | i | i
C[C@H](CO)N1C[C@H](C)[C@@H](CN(C)Cc2ccc(C(F)(F)F)cc2)Oc2c(cccc2N(C)C)C1=O | i | i | i | i
C[C@@H]1CN([C@@H](C)CO)C(=O)c2cc(NS(=O)(=O)c3cccs3)ccc2O[C@@H]1CN(C)C(=O)Nc1ccc2c(c1)OCO2 | i | i | i | i
N#Cc1c(NC(=O)CN2CCN(Cc3ccccc3)CC2)sc2c1CCCC2 | i | i | i | i
COc1ccccc1NC(=O)CN1C(=O)C2C3CCC(C3)C2C1=O (stereo unspecified) | i | i | i | i

Just STAT3 binder, mut p53 SMM and Myc binder, for 2 of the compounds above:
SMILES,STAT3 binder,mut p53 SMM,Myc binder
Cc1ccc(-c2nn(CC(=O)NCCN3CCOCC3)c(=O)c3ccccc23)cc1,i,i,i
C[C@H](CO)N1C[C@H](C)[C@@H](CN(C)Cc2ccc(C(F)(F)F)cc2)Oc2c(cccc2N(C)C)C1=O,i,i,i

Later entries
SMILES | mut p53 SMM | ID4 binder | Myc binder | STAT3 binder
Cc1ccc(F)cc1S(=O)(=O)N[C@@H]1CCN(Cc2ccc3c(c2)OCO3)C1 | i | i | i | i
C[C@@H]1CN([C@@H](C)CO)C(=O)c2cccc(NC(=O)C3CCOCC3)c2O[C@H]1CN(C)S(=O)(=O)c1cn(C)cn1 | i | i | i | i
C[C@H](CO)N1C[C@H](C)[C@@H](CN(C)S(=O)(=O)c2cccs2)Oc2ccc(NS(=O)(=O)c3ccc(Cl)cc3)cc2CC1=O | i | nt | i | i
Cc1noc(C)c1NC(=O)Nc1cccc2c1O[C@@H](CN(C)Cc1ccc(C(=O)O)cc1)[C@H](C)CN([C@@H](C)CO)C2=O | i | i | i | i
C[C@@H]1CCCCO[C@H](CN(C)S(=O)(=O)c2ccccc2)[C@H](C)CN([C@@H](C)CO)C(=O)c2cc(NC(=O)CCCN(C)C)ccc2O1 | i | i | i | i
Cc1noc(C)c1S(=O)(=O)N(C)C[C@H]1OCCCC[C@H](C)Oc2ccc(NS(C)(=O)=O)cc2C(=O)N([C@H](C)CO)C[C@H]1C | i | i | i | i
Cc1noc(C)c1NC(=O)Nc1cccc2c1O[C@H](CN(C)S(=O)(=O)c1cccs1)[C@@H](C)CN([C@@H](C)CO)C2=O | i | i | i | i
C[C@@H]1CN([C@H](C)CO)C(=O)c2cc(NC(=O)c3ccncc3)ccc2O[C@@H](C)CCCCO[C@@H]1CN(C)C(=O)C1CCCCC1 | i | i | i | i
Cc1noc(C)c1NC(=O)Nc1cccc2c1O[C@@H](CN(C)Cc1ccc(Cl)c(Cl)c1)[C@@H](C)CN([C@@H](C)CO)C2=O | i | i | i | i
C[C@H]1CCCCO[C@@H](CN(C)S(=O)(=O)c2ccc(F)cc2)[C@@H](C)CN([C@@H](C)CO)C(=O)c2cc(NC(=O)C3CCCCC3)ccc2O1 | i | i | i | i
C[C@@H]1CN([C@H](C)CO)C(=O)c2cccc(NS(C)(=O)=O)c2O[C@@H]1CN(C)Cc1ccc(C(F)(F)F)cc1 | i | i | i | i
Cc1ccccc1S(=O)(=O)N(C)C[C@H]1OCc2cn(nn2)CCCC(=O)N([C@H](C)CO)C[C@H]1C | i | nt | i | i
COc1cc2c(c(O)c1CO)C(=O)CCC2O (stereo unspecified) | i | i | i | i
C=CCn1c(=O)c(C(=O)NCCO)c(O)c2ccccc21 | i | i | i | i
C[C@@H]1CCCCO[C@H](CN(C)Cc2ccc(C(=O)O)cc2)[C@H](C)CN([C@H](C)CO)C(=O)c2cc(NC(=O)c3ccncc3)ccc2O1 | i | i | i | i
C[C@@H]1CN([C@@H](C)CO)C(=O)c2cc(NC(=O)CCN3CCOCC3)ccc2O[C@@H]1CN(C)C | i | i | i | i
Cc1cc(C(=O)Nc2cccc3c2O[C@H](CN(C)C(=O)NC2CCCCC2)[C@H](C)CN([C@@H](C)CO)C3=O)n(C)n1 | i | i | i | i
Cc1ccc(C(=O)COc2cccc(NC(=O)c3cccs3)c2)cc1C | i | i | i | i
Cc1ccc(S(=O)(=O)N(C)CCCc2nc3ccccc3[nH]2)cc1 | i | i | i | i
C[C@H](CO)N1C[C@H](C)[C@H](CN(C)S(=O)(=O)c2cccs2)Oc2ccc(NC(=O)Cc3ccccc3)cc2CC1=O | i | i | i | i
COC1(C)CN(Cc2ccccc2Br)[C@H](/C=C/c2ccccc2)[C@H](Cc2ccccc2)O1 (stereo partly specified) | i | i | i | i
Cc1cc(C(=O)Nc2ccc(S(=O)(=O)Nc3nccs3)cc2)c(C)o1 | i | i | i | i
O=C(COc1ccccc1)Nc1ccc([N+](=O)[O-])cc1O | i | i | i | i
C[C@@H]1CCCCO[C@@H](CN(C)C(=O)c2ccccc2)[C@H](C)CN([C@H](C)CO)C(=O)c2cc(NS(=O)(=O)c3ccccc3)ccc2O1 | i | i | i | i
Cc1c(N=C2NC(=O)C(CC(=O)Nc3ccccc3)S2)c(=O)n(-c2ccccc2)n1C (stereo unspecified) | i | i | i | i
COc1ccc([Si](C)(C)[C@@H]2[C@@H](CCO)O[C@]3(C(=O)N(Cc4ccc(N5CCC5=O)cc4)c4ccccc43)[C@H]2C)cc1 | i | i | i | i
C[C@@H]1CN([C@@H](C)CO)C(=O)c2cccc(NC(=O)C3CCOCC3)c2O[C@H]1CN(C)C(=O)Nc1cccc2ccccc12 | i | i | i | i
COc1cccc(/C=C(\C#N)C(=O)Nc2c(C)n(C)n(-c3ccccc3)c2=O)c1 | i | i | i | i
CCC(C)CCC(O)C1=C(C)C(O)OC1=O (stereo unspecified) | i | i | i | i
C[C@H]1CCCCO[C@H](CN(C)Cc2ccccc2)[C@@H](C)CN([C@@H](C)CO)C(=O)c2cc(NC(=O)CCC(F)(F)F)ccc2O1 | i | i | i | i
COc1ccc(NC(=O)Nc2cccc3c2O[C@@H](CN(C)Cc2ccc(Cl)c(Cl)c2)[C@H](C)CN([C@@H](C)CO)C3=O)cc1 | i | nt | i | i
Cc1ccc(C)c(S(=O)(=O)NC(C)C(=O)Nc2ccc(Br)cc2F)c1 (stereo unspecified) | i | i | i | i
O=C(NCCN1CCOCC1)c1cc(-c2ccccc2)on1 | i | i | i | i
C[C@@H]1CCCCO[C@H](CN(C)C(=O)Nc2cccc3ccccc23)[C@@H](C)CN([C@H](C)CO)C(=O)c2cc(NS(=O)(=O)c3cccs3)ccc2O1 | i | nt | i | i
Cc1noc(C)c1NC(=O)N(C)C[C@H]1Oc2ccc(NC(=O)NC3CCCCC3)cc2C(=O)N([C@H](C)CO)C[C@@H]1C | i | i | i | i
COc1ccc(S(=O)(=O)N(C)C[C@H]2Oc3ccc(NC(=O)CCCN(C)C)cc3CC(=O)N([C@H](C)CO)C[C@H]2C)cc1 | i | i | i | i
C[C@@H]1CN([C@@H](C)CO)C(=O)c2cccc(NC(=O)C3CCOCC3)c2O[C@@H]1CN(C)C(=O)Nc1ccc2c(c1)OCO2 | i | i | i | i
C[C@@H]1CN([C@@H](C)CO)C(=O)c2cc(NS(=O)(=O)c3cn(C)cn3)ccc2O[C@H]1CN(C)C(=O)NC1CCCCC1 | i | i | i | i
C[C@@H]1CCCCO[C@@H](CN(C)C)[C@H](C)CN([C@@H](C)CO)C(=O)c2cc(NC(=O)C3CCCCC3)ccc2O1 | i | i | i | i
Cc1ccc(Cc2cncc(O)c2)cc1S(=O)(=O)O | i | + | i | i
O=C(Nc1ccccc1)C1=C[C@@H](c2ccc3c(c2)Cc2ccccc2-3)C[C@@H](OCc2ccc(CO)cc2)O1 | i | i | i | i
CCO[C@H]1OC(C(=O)N2CCOCC2)=C[C@@H](c2ccc(Br)cc2)[C@@H]1CCCO | i | i | i | i
CCOC(=O)c1c(NC(=S)Nc2nc(C)cc(C)n2)sc2c1CCCCCC2 | i | i | i | i
O=C1O[C@@H](c2ccccc2)[C@@H](c2ccccc2)N2[C@@H](c3ccc(OCCO)cc3)[C@]3(C(=O)Nc4ccccc43)[C@@H](C(=O)N3CCN(c4ncccn4)CC3)[C@H]12 | i | i | i | i
CC(C)NC(=O)Nc1ccc2c(c1)C(=O)N([C@H](C)CO)C[C@@H](C)[C@H](CN(C)C)O2 | i | i | i | i
C[C@@H]1CN([C@H](C)CO)C(=O)c2cccc(NS(=O)(=O)c3ccccc3)c2O[C@H]1CN(C)C(=O)Nc1ccccc1 | i | i | i | i
CCc1c(O)cc(O)c2c1O[C@H](C)CC2=O | i | nt | i | i
C[C@@H]1CN([C@@H](C)CO)C(=O)Cc2cc(NS(=O)(=O)c3ccc(Cl)cc3)ccc2O[C@@H]1CN(C)C(=O)Nc1cccc2ccccc12 | i | nt | i | i
COc1ccc(NC(=O)Nc2ccc3c(c2)C(=O)N([C@H](C)CO)C[C@@H](C)[C@H](CN(C)S(=O)(=O)c2cn(C)cn2)OCCCC[C@H](C)O3)cc1 | i | nt | i | i
COc1ccc(C(CC(=O)O)NC(N)=O)cc1 (stereo unspecified) | i | i | i | i

Following part.
SMILES | mut p53 SMM | ID4 binder | Myc binder | STAT3 binder
CS(=O)(=O)N(CC(=O)Nc1ccc(C(F)(F)F)cc1)c1ccccc1Cl | i | i | i | i
Cc1sc2nc3c4ccccc4c(NCc4ccccn4)nn3c(=O)c2c1C | i | i | i | i
COc1ccc(NCC(O)Cn2ccc3ccccc32)cc1 (stereo unspecified) | i | i | i | i
COc1ccc(S(=O)(=O)N(C)C[C@@H]2Oc3ccc(NC(=O)Nc4ccc5c(c4)OCO5)cc3CC(=O)N([C@@H](C)CO)C[C@H]2C)cc1 | i | i | i | i
C/C=C1\[C@H](O[C@@H]2O[C@H](CO)[C@@H](O)[C@H](O)[C@H]2O)OC=C(C(=O)O)[C@H]1CC(=O)OCCc1ccc(O)cc1 | i | nt | i | i
CS(=O)(=O)N(CC(=O)NC1CC1)c1ccc(Cl)c(Cl)c1 | i | i | i | i
C[C@H](CO)N1C[C@H](C)[C@@H](CN(C)CC2CC2)Oc2ccc(NC(=O)Nc3ccccc3)cc2CC1=O | i | i | i | i
COc1cc(O)cc(C(=O)O)c1Oc1cc(C)cc(O)c1C(=O)O | i | i | i | i
CC(=O)c1cccc(NC(=O)c2ccsc2NC(=O)COc2ccccc2)c1 | i | i | i | i
C[C@@H]1CN([C@H](C)CO)C(=O)Cc2cc(NC(=O)C3CC3)ccc2O[C@@H]1CN(C)Cc1ccc(C(F)(F)F)cc1 | i | i | i | i
CC(C)NC(=O)Nc1ccc2c(c1)C(=O)N([C@H](C)CO)C[C@H](C)[C@@H](CN(C)C(=O)c1ccncc1)OCCCC[C@@H](C)O2 | i | i | i | i
COc1ccc(NC(=O)N(C)C[C@@H]2Oc3ncc(C#Cc4ccccc4)cc3C(=O)N([C@H](C)CO)C[C@@H]2C)cc1 | i | i | i | i
C[C@@H]1CN([C@H](C)CO)C(=O)c2cc(NS(=O)(=O)c3ccccc3)ccc2O[C@@H](C)CCCCO[C@@H]1CN(C)S(C)(=O)=O | i | i | i | i
C[C@H](CO)N1C[C@H](C)[C@H](CN(C)C(=O)Nc2cccc3ccccc23)Oc2ccc(NC(=O)Nc3cccc4ccccc34)cc2CC1=O | i | i | i | i
COc1ccccc1-c1cc(=O)c2ccccc2o1 | i | i | i | i
C[C@H](CO)N1C[C@H](C)[C@H](CN(C)CC2CC2)Oc2ccc(NC(=O)Cn3cnnn3)cc2C1=O | i | i | i | i
Nc1nnc(SCCN2C(=O)c3ccccc3S2(=O)=O)s1 | i | i | i | i
COc1cc(CNCc2ccccc2)cc(I)c1OCC#N | i | i | i | i

A stretch from further up, as a working copy:
SMILES | mut p53 SMM | ID4 binder | Myc binder | STAT3 binder
CC(=O)c1cccc(NC(=O)c2ccsc2NC(=O)COc2ccccc2)c1 | i | i | i | i
C[C@@H]1CN([C@H](C)CO)C(=O)Cc2cc(NC(=O)C3CC3)ccc2O[C@@H]1CN(C)Cc1ccc(C(F)(F)F)cc1 | i | i | i | i
CC(C)NC(=O)Nc1ccc2c(c1)C(=O)N([C@H](C)CO)C[C@H](C)[C@@H](CN(C)C(=O)c1ccncc1)OCCCC[C@@H](C)O2 | i | i | i | i
COc1ccc(NC(=O)N(C)C[C@@H]2Oc3ncc(C#Cc4ccccc4)cc3C(=O)N([C@H](C)CO)C[C@@H]2C)cc1 | i | i | i | i
C[C@@H]1CN([C@H](C)CO)C(=O)c2cc(NS(=O)(=O)c3ccccc3)ccc2O[C@@H](C)CCCCO[C@@H]1CN(C)S(C)(=O)=O | i | i | i | i
C[C@H](CO)N1C[C@H](C)[C@H](CN(C)C(=O)Nc2cccc3ccccc23)Oc2ccc(NC(=O)Nc3cccc4ccccc34)cc2CC1=O | i | i | i | i
COc1ccccc1-c1cc(=O)c2ccccc2o1 | i | i | i | i
